VACV Venus inh: qHTS for Stage-Specific Inhibitors of Vaccinia Orthopoxvirus: Venus Reporter Primary qHTS; Vaccinia virus Venus reporter expression, fluorescence; hit rate 0.46% among 330,000; Potency, µM (top dose mostly 36.5 µM), for inactives: at the highest dose activity change, negative = inhibition, actives largely listed as inhibitors; active means well fitted inhibition curve with a large enough effect; inconclusive means small, poorly fitted or top-dose-only effect; inactive means no such curve, though single readings can be large or run the other way; tested in A549 cells; note: nearly all actives have a fitted effect of over 30% in size; inactives centre near -10
Vaccinia mCherry: qHTS for Stage-Specific Inhibitors of Vaccinia Orthopoxvirus: mCherry Reporter Primary qHTS; Vaccinia virus mCherry reporter infection, fluorescence; about a quarter of the inactives have no number; hit rate 0.63% among 310,000; AID 720579, 2013; Potency, µM (series often up to 36.5 µM), without a hit: top-dose activity change, negative = inhibition, usual class: inhibitors; active = well fitted inhibition curve with a large enough effect; inconclusive = small, poorly fitted or top-dose-only effect; inactive = no such curve, though single readings can be large or run the other way; tested in A549 cells; note: nearly all actives have a fitted effect of over 35% in size; inactives centre near -10
Starred values were filed as active, the others as inactive; i = inactive; ? = inconclusive; · = no result given; [ ] = dose if it differs, or a comment. % is set by controls: 0 for no effect and ±100 for the full control effect; potency is the fitted concentration of half-maximal effect. No enrichment for hits (roughly 0.82% active in at least one column).

SMILES	VACV Venus inh	Vaccinia mCherry
COc1cccc(NC(=O)CSc2nc3ccccc3cc2Cc2ccccc2)c1	16%	10%
O=C(Nc1cccc(C(F)(F)F)c1)c1cc(-c2ccc(Cl)s2)nc2ccccc12	-8%	-11%
CCCCNC(=O)C(NC(=O)c1cccnc1OC)C(=O)c1ccccc1 (centres undefined)	-11%	-16%
COc1ccccc1N1CCN(C2CCN(C(=O)c3cccs3)CC2)CC1	-6%	-8%
CCCn1nc(NC(=O)c2cccc(Cl)c2)c2cc3cccc(C)c3nc21	-16%	-10%
CS(=O)(=O)Oc1ccc(/C=N/NC(=O)c2ccncc2)cc1	-8%	-11%
CC(C)CC(O)(CC(C)C)C(=O)NNc1ccccc1	-5%	-16%
CCCn1c(N2CCN(CC(=O)c3c(C)n(C)c4ccccc34)CC2)nc2c1c(=O)[nH]c(=O)n2C	-32%	·
COc1cc(CO)cc(Br)c1OCC(=O)Nc1cccc2ccccc12	-2%	-18%
Cc1ccc(CN2C(=O)c3ccccc3Sc3ccc(C(=O)NC4CCCC4)cc32)cc1	-22%	-22%
COc1ccc(OC)c(-n2nnnc2SCC(=O)Nc2ccccc2N2CCOCC2)c1	?	-4%
COc1ccc(S(=O)(=O)N(CC(=O)NCc2cccnc2)Cc2ccccc2)cc1	-1%	i
O=C(NCc1cccnc1)C1CCN(c2ccc(S(=O)(=O)N3CCOCC3)cc2Cl)CC1	-16%	-26%
C/C(CC(=O)Nc1ccc(Cl)cc1C(F)(F)F)=N\NC(N)=S	?	?
Cc1nn2c(CN(C(=O)COc3ccccc3)c3ccccc3)nnc2c2ccccc12	-14%	-21%
CN(C)Cc1nc2ccccc2c(=O)n1CC(=O)Nc1cccc(S(=O)(=O)N2CCOCC2)c1	-14%	i
Cc1ccccc1C(=O)Nc1ccc(OCc2cc(=O)n3ccccc3n2)cc1	-7%	-5%
C=CCn1c(SCC(N)=O)nnc1-c1cccc(Br)c1	?	·
c1ccc2c(c1)oc1c(Nc3ccc4c(c3)OCO4)ncnc12	3%	-8%
Cc1cnc(NC(=O)c2ccncc2)s1	0%	-7%
O=C(NCc1ccccc1Cl)[C@H]1CCCN1C(=O)[C@H]1CCCN1C(=O)c1cccc2ccccc12	-1%	i
COc1ccc(CC(=O)Nc2nc(-c3ccc(F)c(F)c3)cs2)cc1	-6%	-4%
Cc1ccc(S(=O)(=O)Oc2ccccc2/C=N/NC(=O)c2nn(C)cc2[N+](=O)[O-])cc1	-13%	-6%
C=CCN1C(=O)CC(C(=O)NC)SC1=Nc1ccc(C(=O)OCC)cc1 (centres undefined)	-8%	0%
COc1cccc(C2CC(=O)Nc3cc4c(cc32)CCC4)c1 (centres undefined)	-30%	-29%
O=C(CN1C(=O)NC2(CCCCC2)C1=O)N1CCOCC1	-6%	-7%
CCOc1cccc(-c2nc3ccccc3c(=O)o2)c1	-3%	-8%
CN(C)N=Nc1ccc(-c2cn(Cc3ccccc3)cn2)cc1	0%	?
C/C(=N\NC(=O)CN(c1ccc(C)cc1)S(C)(=O)=O)c1cccs1	-1%	i
COc1ccccc1NC(=O)c1c(NC(=O)c2ccccc2F)sc2c1CCC2	1%	-11%
Cc1ccc(CNC(=O)CN2NS(=O)(=O)c3ccccc3C2=O)cc1	-15%	-13%
O=C(CCc1nc2ccccc2c(=O)[nH]1)N1CCN(c2ccc(F)cc2)CC1	-13%	i
CCCc1nnc(NC(=O)CCC(=O)NCc2ccc(OC)cc2)s1	-2%	-13%
CC(C)C[C@@H](CN1CCC[C@@H]1CN1C(=S)NC[C@@H]1Cc1ccccc1)N1C[C@H](Cc2ccc(O)cc2)N(CCc2ccccc2)C1=S	-12%	0%
COc1ccc(C(C)(O)c2nc(-c3cccc(C(C)C)c3)cs2)cc1 (centres undefined)	-5%	2%
COc1cc(NC(=O)C2(C)CCN2C(=O)C(C)C)cc(OC)c1OC (centres undefined)	8%	-4%
Cc1nc2ccc(C(=O)OCc3ccccc3Br)cc2nc1C	-6%	-5%
COc1ccc(Br)cc1CN1CCCC(C(=O)N2CCCCCC2)C1 (centres undefined)	-26%	·
COc1c(Br)cc2c(C)c(C(=O)O)oc2c1Br	-1%	-5%
CCCOc1ccccc1-c1nc(SCC(=O)c2ccccc2)n[nH]1	-2%	-17%
NC(=O)C1=C[C@@H](c2ccccc2)C[C@@H](OCCCCO)O1	-10%	i
Fc1cccc(/C=N/Nc2ccc3ccccc3n2)c1	-13%	-9%
N#CC1=C(N)Oc2n[nH]c(-c3cccs3)c2C1c1ccccc1C(=O)O (centres undefined)	2%	-5%
CC(C)Cn1c(-c2ccc(F)cc2)n[nH]c1=S	-23%	·
CSc1ncc(C(=O)N2CCN(c3cccc(Cl)c3)CC2)c(C)n1	-11%	-13%
CCOc1ccc(S(=O)(=O)N(CC(=O)Nc2cccnc2)c2ccccc2)cc1	-21%	-18%
CCOC(=O)c1cccc(NC(=O)CCc2nc3cccnc3n2-c2ccccc2)c1	-13%	-13%
O=C(/C=C/NCC(=O)c1ccccc1)c1ccc(Br)cc1	-7%	-15%
COc1ccc(S(=O)(=O)NC(C)C(=O)NCc2ccccn2)cc1OC (centres undefined)	3%	-14%
Cc1ccc(C(=O)NCC(C)NC(=O)c2ccc(C)c(C)c2)cc1C (centres undefined)	-17%	i
CN(Cc1ccccc1)C(=O)CN1C(=O)NC2(CCCCCCC2)C1=O	-17%	i
CCCc1nc2nc(C)c(NS(=O)(=O)c3ccc(Cl)cc3)c(=O)n2[nH]1	6%	i
O=C1N=C(N2CCOCC2)S/C1=C1\C(=O)N(Cc2ccccc2)c2ccccc21	-11%	-14%
O=C1NC(=O)C(=Cc2ccc(OCC(=O)N3CCOCC3)cc2)C(=O)N1	0%	i
COc1ccc(NC(=O)CN2C(=O)CCc3cc(S(=O)(=O)N4CCOCC4)ccc32)cc1Cl	-30%	-27%
Cc1ccc(C(=O)CCC(=O)Nc2ccc(C)cc2C)cc1	-10%	9%
O=C(C1COc2ccccc2O1)N(Cc1cccnc1)c1nc2ccc(F)cc2s1 (centres undefined)	-10%	i
O=C(c1nc2ccccn2c1CNCCCn1ncc2ccccc21)N1CCCC1	-9%	i
Cc1cn2c(=O)cc(COC(=O)C(C)Oc3ccccc3)nc2s1 (centres undefined)	0%	-5%
CN(C)c1ccc(CNS(=O)(=O)c2csc(C(N)=O)c2)cc1	-22%	-3%

The list goes on:
SMILES	VACV Venus inh	Vaccinia mCherry
COc1cccc(NC(=O)CN(C)CC(=O)Nc2ccc(C)c(S(=O)(=O)N3CCOCC3)c2)c1	-15%	-4%
COc1cccc(C=Nc2cccc3c(=O)[nH][nH]c(=O)c23)c1O	-13%	?
CCN1CCN(C(=O)C2CCC(CNS(=O)(=O)c3ccccc3)CC2)CC1 (centres undefined)	-13%	i
Fc1cccc(NC(=S)NCc2cccnc2)c1	1%	-4%
Oc1ccccc1-c1cnc2cccnn12	0%	4%
Cc1c(Cl)ccc2sc(NC(=O)c3ccc(S(=O)(=O)N4CCCC4)cc3)nc12	-17%	-17%
Cc1ccccc1-c1cncnc1N(C)Cc1ccco1	-5%	-5%
CCOC(=O)N1CCN(Cc2nc3cc(NC(=O)c4ccc(F)cc4)ccc3n2C(C)C)CC1	-18%[7.34 µM]	-26%[7.34 µM]
Cc1ccc(O)c(C(=O)c2cnc3c(c2)c(=O)n(C)c(=O)n3C)c1	-1%	6%
O=C(NCCCO)/C(=C\c1ccco1)NC(=O)c1ccc(Br)o1	-6%	i
N=c1ncn(C2OC(CO)C(O)C2O)c2nc(Br)[nH]c12 (centres undefined)	-19%	-20%
Cc1cccc(-n2nnnc2SC(C)C(=O)NCCC2=CCCCC2)c1 (centres undefined)	14%	-1%
COc1ccc(C2CC(=O)c3cnc4c(-c5ccccc5)c(C)nn4c3C2)c(OC)c1 (centres undefined)	-11%	-7%
COc1ccccc1NS(=O)(=O)c1ccc(NC(=O)c2ccncc2)cc1	-4%	i
CCNC(=O)COC(=O)c1sccc1C	-16%	-8%
Cc1ccc(S(=O)(=O)NC2CC3CCC2C3)cc1 (centres undefined)	-2%[7.34 µM]	i[7.34 µM]
CCOC(=O)C1=C(C)NC(=O)NC1c1ccc(OCC(N)=O)cc1 (centres undefined)	-10%	-14%
CCc1ccc(N(C(=O)CCC(=O)Nc2cc(C)on2)C(C(=O)NC2CCCC2)c2ccco2)cc1 (centres undefined)	-25%	-16%
CC(C)C(=O)Nc1ccc(N2CCN(C(=O)c3cccs3)CC2)cc1	-4%	-12%
COc1ccc(C2CC(C(F)(F)F)n3nc(C(=O)NCc4cn(C)nc4C)c(Cl)c3N2)cc1 (centres undefined)	-22%	-11%
O=C(CCN1C(=O)/C(=C/c2ccco2)SC1=S)Nc1ccc(O)cc1C(=O)O	21%	-1%
O=C(NCCCn1ccnc1)C1CCN(S(=O)(=O)c2cc([N+](=O)[O-])ccc2Cl)CC1	-21%	-16%
CS(=O)(=O)N(CC(=O)NCC1CCCO1)c1ccc(F)c(Cl)c1 (centres undefined)	0%	·
Cc1cc(Nc2cccc(Cl)c2)nc(-c2ccccc2O)n1	-21%	-18%
CCc1cccc(NS(=O)(=O)c2ccc3c(c2)n(C)c(=O)c(=O)n3C)c1	-16%	-9%
CCOC(=O)C1CCCN(C(=O)CSCc2ccccc2)C1 (centres undefined)	3%	-6%
COc1cccc(N2CC(NS(=O)(=O)c3ccc(Cl)cc3)CC2=O)c1 (centres undefined)	-6%	-4%
N#Cc1ccccc1COc1ccc(/C=C/C(=O)O)cc1	0%	i
Cc1cccc(N2C(=O)/C(=C/c3cccnc3)SC2=S)c1	-13%	i
COc1ccc(/C(O)=C/C(=O)C(=O)NNC(=O)c2ccccc2)cc1	-12%	-14%

Laid out differently: results already given.
Molecule: CCOC(=O)C1=C(C)NC(=O)NC1c1ccc(OCC(N)=O)cc1 (centres undefined)
  VACV Venus inh: -10%
  Vaccinia mCherry: -14%

Molecule: CCc1ccc(N(C(=O)CCC(=O)Nc2cc(C)on2)C(C(=O)NC2CCCC2)c2ccco2)cc1 (centres undefined)
  VACV Venus inh: -25%
  Vaccinia mCherry: -16%

Additional results.
SMILES	VACV Venus inh	Vaccinia mCherry
Cc1ccc(/C=C/C(=O)O)cc1S(=O)(=O)NCC1CCCO1 (centres undefined)	-7%	-5%
Cc1ccc(OCCSc2nc3ccc(NC(=O)c4ccco4)cc3s2)cc1	-14%	0%
Cc1ccc(C(=O)Nc2nc3ccccc3c(=O)s2)cc1	-11%	i
COc1cc(N=C2C(=O)N3c4c(cccc42)C(C)=CC3(C)C)cc(OC)c1	-17%	-16%
CCOC(=O)c1ccc(CNCc2ccccc2)cc1	-2%	-25%
COc1cc(OC)cc(-c2nnc(SCc3c(F)cccc3Cl)o2)c1	-13%	-10%
COc1ccccc1C(=O)Nc1ccon1	-5%	-9%
COc1ccc(N2CCN(C(=O)CCn3nnc4ccccc43)CC2)cc1	-6%	-10%
CCOC(=O)c1c(-c2ccccc2)oc2cc(Br)c(O)c(C=O)c12	-20%	?
CCCN1C(=O)C(O)(CC(=O)c2cccc(OC)c2)c2ccccc21 (centres undefined)	21%	-13%
O=C(CC(c1ccccc1)c1cc(Cl)ccc1O)N1CCOCC1 (centres undefined)	-13%	-20%
O=C(Nc1ncc2c(n1)-c1ccccc1CC2)c1cccs1	?	?

Arranged by formula weight (largest number first): part of the list above
SMILES	VACV Venus inh	Vaccinia mCherry
Cc1ccc(OCCSc2nc3ccc(NC(=O)c4ccco4)cc3s2)cc1	-14%	0%
CCOC(=O)c1c(-c2ccccc2)oc2cc(Br)c(O)c(C=O)c12	-20%	?
COc1cc(OC)cc(-c2nnc(SCc3c(F)cccc3Cl)o2)c1	-13%	-10%
CCc1cccc(NS(=O)(=O)c2ccc3c(c2)n(C)c(=O)c(=O)n3C)c1	-16%	-9%
COc1ccc(N2CCN(C(=O)CCn3nnc4ccccc43)CC2)cc1	-6%	-10%
COc1cc(N=C2C(=O)N3c4c(cccc42)C(C)=CC3(C)C)cc(OC)c1	-17%	-16%
O=C(CC(c1ccccc1)c1cc(Cl)ccc1O)N1CCOCC1 (centres undefined)	-13%	-20%
COc1ccc(/C(O)=C/C(=O)C(=O)NNC(=O)c2ccccc2)cc1	-12%	-14%
CCCN1C(=O)C(O)(CC(=O)c2cccc(OC)c2)c2ccccc21 (centres undefined)	21%	-13%
Cc1ccc(/C=C/C(=O)O)cc1S(=O)(=O)NCC1CCCO1 (centres undefined)	-7%	-5%
CCOC(=O)C1CCCN(C(=O)CSCc2ccccc2)C1 (centres undefined)	3%	-6%
Cc1ccc(C(=O)Nc2nc3ccccc3c(=O)s2)cc1	-11%	i
N#Cc1ccccc1COc1ccc(/C=C/C(=O)O)cc1	0%	i
CCOC(=O)c1ccc(CNCc2ccccc2)cc1	-2%	-25%
COc1ccccc1C(=O)Nc1ccon1	-5%	-9%

Compound activity deposited in PubChem BioAssay by National Center for Advancing Translational Sciences (NCATS).
